CSC inhib = cancer stem cell viability inhibitors, primary screen, luminescence | AID 2717, 2010 | inhibition, % at 7.5 µM | cancer stem cell-like cells viability | 1.1% of 300,000 active;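 active = mean at 75% or more and at least half the replicates too; inconclusive = mean and replicates disagree; tested in HMLE shEcad cells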;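 note: 0% = median of negative and 100% = median of positive control wells; the first replicate is given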
eIF4H inh = human eIF4H binding inhibitors, primary screen, translation initiation inhibitor project, biochemical, uHTS, fluorescence polarization. 0.94% of 290,000 active. eIF4H fluorescence polarization binding assay. Eukaryotic translation initiation factor 4H (Homo sapiens), Q15056. inhibition, % at 35 µM;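 active = 50% or more with normal probe brightness, or confirmed in later tests; inconclusive = above 50% with abnormal brightness, or retests that disagree; inactive = below 50% or failed in later tests; about a fifth of its hits are not listed in these tables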;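 note: calls also rest on retests at 20 µM and on dose response follow-up; 0% = protein and probe with vehicle and 100% = probe without protein; strong numbers were not always called active; many hits fall short of the cut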
Yeast UUG start = modulators of yeast start codon fidelity, primary screen, whole organism, S. cerevisiae, single point, plate reader; 0.13% of 350,000 active; S. cerevisiae UUG-firefly luciferase reporter, luminescence/redox ratio; activity score, % at 18.7 µM; AID 602363, 2012;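 active = replicate mean at a twofold rise or more, about +100% in these data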;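 note: firefly luciferase made from a UUG start codon reports start codon fidelity; reporter light over untreated wells divided by growth signal over untreated wells; some hits fall short of that in this replicate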
Env fusion inh = inhibitors of HIV-1 Env-driven cell-cell fusion, primary screen, HeLa-JRFL effector, CEM21 target cells, luciferase | inhibition, % at 12.3 µM | 1.1% of 360,000 active;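 active = mean replicate inhibition score of at least 50 and every replicate individually at or above 50; inconclusive = only one of the two criteria met; inactive = mean below 50 and not all replicates reaching 50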;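 note: 0% = plate neutral controls and 100% = maraviroc near 300 nM; one replicate is shown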
Rce1 inh = yeast Rce1p protease inhibitors, primary screen, biochemical, fluorescence, cell-free homogeneous. yeast membranes, quenched prenylated peptide cleavage fluorescence. calls only. 0.27% of 290,000 active. AID 2563, 2010;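 active = fall in fluorescence gain of 50% or more versus controls, with final raw signal at or below 3038400; inconclusive = same 50% fall but final raw signal above 3038400; inactive = fall in fluorescence gain under 50%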;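 note: plate controls were neutral control wells for no effect and wells lacking membranes for full effect; tested at 10 µM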
Target sequence (Q03530 whole entry, looked up): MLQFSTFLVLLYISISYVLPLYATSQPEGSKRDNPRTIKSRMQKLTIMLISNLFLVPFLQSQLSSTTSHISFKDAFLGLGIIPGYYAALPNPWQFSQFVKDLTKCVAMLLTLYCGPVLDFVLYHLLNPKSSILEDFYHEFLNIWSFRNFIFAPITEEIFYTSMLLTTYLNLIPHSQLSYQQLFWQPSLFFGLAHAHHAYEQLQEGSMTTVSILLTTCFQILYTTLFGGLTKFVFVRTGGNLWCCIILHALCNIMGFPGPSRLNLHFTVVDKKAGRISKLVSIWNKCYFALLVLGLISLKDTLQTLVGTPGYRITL
PABP FP inh = PABP poly(A) RNA binding inhibitors, primary screen, biochemical, fluorescence polarization, uHTS | Polyadenylate-binding protein 1 (Homo sapiens), P11940 | inhibition, % at 35 µM | 1% of 290,000 active | AID 2014, 2009;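 active = 50% or more with normal probe brightness, or confirmed in later tests; inconclusive = above 50% with abnormal brightness, or retests that disagree; inactive = below 50% or failed in later tests; about a fifth of its hits are not listed in these tables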;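 note: calls also rest on retests at 20 µM and on dose response follow-up; controls were probe without protein and protein plus probe with vehicle; some compounds called inactive have numbers as strong as hits; many hits fall short of the cut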
MT1-MMP act inh = blockers of MT1-MMP proenzyme processing, primary screen, HT1080 RFP-PRO-GFP cells, GFP/RFP fluorescence; Matrix metalloproteinase-14 (Homo sapiens), P50281; GFP/RFP ratio change, % at 20 µM; 0.061% of 360,000 active; AID 651647, 2012; GFP/RFP ratio fluorescence, overnight; percent of plate control window, DMSO zero;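 active = GFP/RFP ratio change of at least 30% with cell ATP level not reduced by more than half and red fluorescence within 50% of control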; note: strong numbers were not always called active
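Assay system – RFP-PRO-GFP reporter HT1080 cells · Compound dosing – single dose of 20 µM compound, 1% DMSO final · Incubation – overnight compound exposure at 37 °C · Measure – GFP/RFP fluorescence ratio · Benchmarks – DMSO wells and RFP-L50D-GFP cells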
MT1-MMP act inh RFP = recorded beside MT1-MMP act inh, whose call it bears; RFP signal change, %; measured here: RFP expression control read;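 0 = vehicle wells; hits needed this value within 50% of zero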
An asterisk follows results filed as active; i = inactive; u = inconclusive; x = not tested or not shown; + = active, no number; & = joins results of further samples.

SMILES | CSC inhib | eIF4H inh | Yeast UUG start | Env fusion inh | Rce1 inh | PABP FP inh | MT1-MMP act inh | MT1-MMP act inh RFP
COc1ccc(OC)c(C2C(C(=O)Nc3cccnc3)=C(C)NC3=C2C(=O)CCC3)c1 (stereo not drawn) | -5 | 0 | -17 | -57 | i | -7 | 6 | 2
Cc1ccccc1Nc1nc(N)nc(COC(=O)C2CCCCC2)n1 | -11 | -6 | x | x | i | -13 | 3 | 5
CS(=O)(=O)c1ccc(Cl)c(C(=O)O)c1 | 6 | 3 | -16 | x | i | 16 | 2 | 3
CN1CCN(S(=O)(=O)c2ccc(NC(=S)NC(=O)C(C)(C)C)cc2)CC1 | 7 | -3 | x | 15 | i | -10 | 6 | 1
C=CCn1c(CCC(=O)O)ccc1-c1ccc(OC)cc1 | -5 | 11 | -7 | x | i | 12 | -16 | 4
CCCNC(=O)C1(C)CCCN(C(=O)c2cccc(Cl)c2)C1 (stereo not drawn) | x | x | -7 | 16 | x | x | 4 | 6
COc1ccccc1NC(=S)N(Cc1cccnc1)Cc1ccco1 | -10 | 5 | -14 | 7 | i | 2 | -3 | -2
Cc1cc(C(=O)NNS(=O)(=O)c2ccccc2C(F)(F)F)nn1C(C)(C)C | -10 | -4 | x | 3 | i | 13 | 2 | 3
CCCCOC(=O)c1nc(Cl)c(Cl)c(N)c1Cl | 5 | -3 | -12 | -45 | i | 7 | 10 | 5
CCN(CC)c1ccc2cc(S(=O)(=O)c3ccc(Cl)cc3)c(=O)oc2c1 | 99* | u | -20 | 3 | i | 2 | -26 | -7
CC1CCN(S(=O)(=O)c2ccc(C(=O)Nc3nnc(C4=COCCO4)o3)cc2)CC1 | 7 | -1 | -17 | 2 | i | -1 | 1 | -2
Cn1c(N)c(C(=O)COC(=O)c2cccc(S(=O)(=O)N3CCCCC3)c2)c(=O)n(C)c1=O | -7 | 5 | x | -7 | i | 2 | 3 | 2
O=C(c1cccnc1)N1C2CCC1CC(O)(c1ccc(F)cc1)C2 (stereo not drawn) | 4 | -6 | -14 | x | i | -8 | 3 | 4
CC(OC(=O)CC1CCCCC1)C(=O)Nc1ccc(F)cc1 (stereo not drawn) | -5 | x | -13 | -2 | i | x | 1 | -4
Cn1cccc1C1C(C#N)=C(N)OC2=C1C(=O)CCC2 (stereo not drawn) | 0 | 27 | -19 | -3 | i | 15 | -4 | -9
Cc1ccc(C)c(NC(=O)Cn2c([N+](=O)[O-])cnc2C)c1 | -3 | -9 | x | -97 | i | -5 | 3 | 5
Brc1ccc(-c2nn3c(-c4ccco4)nnc3s2)o1 | -5 | 66* | -16 | -189 | i | 70* | 1 | 0
COc1ccc(S(=O)(=O)NCCOc2ccccc2)cc1-n1cnnn1 | -11 | 3 | -5 | 30 | i | -4 | -5 | 4
CC(C)=CC(=O)Nc1ccc(OCc2ccccc2)cc1 | 62 | 2 | x | -1 | i | -1 | 0 | -3
O=C(COC(=O)/C=C/c1cccc([N+](=O)[O-])c1)NCc1ccc2c(c1)OCO2 | -15 | -1 | x | -20 | i | -8 | 4 | 6
CN(Cc1ccc(F)cc1)C(=O)c1cccc(S(=O)(=O)N2CCN(c3ccccc3)CC2)c1 | 7 | x | -11 | 10 | i | x | -4 | -21
Cc1cnnn1-c1ccc([N+](=O)[O-])cc1 | -15 | 12 | x | -2 | i | 14 | -6 | -5
O=C(Cn1ncc2c(=O)oc3ccccc3c21)NCC1CCCO1 (stereo not drawn) | -10 | 7 | 0 | 47 | i | -15 | 0 | 4
COc1ccc(C2=CC(=O)C[C@H](c3ccc(F)cc3)C2)cc1OC | 60 | x | -11 | 9 | x | x | 2 | -3
COCCCn1c(=O)c2ccccc2n(Cc2cc(C(=O)OC)ccc2OC)c1=O | -10 | 1 | 0 | -10 | i | 4 | 1 | -4
SMILES | CSC inhib | eIF4H inh | Yeast UUG start | Env fusion inh | Rce1 inh | PABP FP inh | MT1-MMP act inh | MT1-MMP act inh RFP
Cc1ccc(NC(=O)CCc2nnc3ccc(N4CCC(C)CC4)nn23)nc1 | -10 | x | -14 | -8 | i | x | 2 | 1
COc1ccc(NC(=O)C/C(C)=N/NC(=O)c2cnccn2)c(OC)c1 | -4 | -2 | -24 | 20 | i | 2 | 1 | 3
COc1ccc(-c2cc(N)n(CCC#N)n2)c(OC)c1 | 4 | 3 | -13 | -5 | i | 3 | -5 | -2
CCOC(=O)C1=C(C)N(CCCC(=O)O)C(=O)NC1c1ccccc1OC(=O)c1cccs1 (stereo not drawn) | -10 | x | x | 16 | + | x | x | x
Cc1occc1C(=O)N(C)Cc1nc(-c2ccccc2)no1 | -7 | 0 | -3 | -2 | i | -3 | 2 | 3
COc1ccc(-c2nnc(SCC(=O)N3CCCCC3)o2)c(OC)c1 | -5 | -1 | -9 | -105 | i | 12 | 0 | -2
COc1ccc(-c2csc3ncnc(N4CCN(S(=O)(=O)c5ccc(C)c(C)c5)CC4)c23)cc1 | -4 | x | -23 | 30 | i | x | -9 | -6
COCc1ccc(CN2CCC(C(=O)Nc3cccc(-c4cscn4)c3)CC2)o1 | -5 | -2 | -15 | -3 | i | 13 | 0 | 1
COC(=O)c1cn(C(=O)c2cc(Br)ccc2Cl)c2ccccc12 | -9 | -3 | -5 | -5 | i | -1 | -2 | -1
N#Cc1ccc(-c2ccc(Cl)cc2)nc1SCC(=O)c1cccc(Cl)c1 | 10 | 0 | -18 | -27 | i | 9 | -65 | 4
Cc1nnsc1C(=O)NC1CCCCC1 | x | 8 | -9 | x | i | 4 | 0 | 4
CC(=O)c1cc(-c2ccccc2)n(CCC(=O)NCc2cccs2)c1C | -2 | 1 | -9 | x | i | -10 | -1 | -7
CCOP(=O)(c1ccc(N(C)C)cc1)C(O)c1ccc(C)cc1 (stereo not drawn) | -7 | -1 | x | 13 | i | -14 | -1 | 2
CCn1c(SCC(=O)NC2CC2)nnc1-c1ccc(C)cc1 | -10 | -3 | -17 | -5 | i | 0 | -2 | 0
Cc1ccc(S(=O)(=O)N2CCN(C(=O)CCCN3C(=O)NC4(CCCC4)C3=O)CC2)cc1C | -2 | x | -16 | -8 | x | x | -9 | -2
CCCC(=O)N1CCC1(C)C(=O)Nc1ccccc1C(C)(C)C (stereo not drawn) | x | x | -11 | -4 | x | x | 1 | 5
COc1ccc(NC(=O)c2cccc(C#N)c2)cc1NS(=O)(=O)c1ccc(F)cc1 | 6 | 2 | -8 | x | i | 7 | 3 | 3
CC(C)n1nnnc1SCC(=O)NCc1cccs1 | -1 | 0 | -21 | -6 | i | 12 | 6 | 21
CCN(CC)CCn1c(=N)n(CC(=O)c2ccc(C)cc2)c2ccccc21 | -5 | -6 | -6 | -3 | i | -2 | 1 | -2
O=C1CC(SCc2nc3ccccc3[nH]2)C(=O)N1c1ccc(F)cc1 (stereo not drawn) | 0 | -3 | -14 | x | i | 13 | -4 | 10
COC(=O)[C@@]1(C)[C@H]2C(=O)N(Cc3ccccc3)C(=O)[C@H]2[C@H]2CN=C(SCc3ccccc3)N21 | x | x | -8 | 77* | x | x | 1 | 0
O=C1NCCN1CCN1C(=O)c2ccccc2NC1c1ccccc1 (stereo not drawn) | -12 | 1 | 0 | 10 | i | 11 | 0 | 2
CC(C)CN1CCC(CN2CCNC(=O)C2=O)CC1 | x | x | -9 | -38 | x | x | 5 | 7
Cc1onc(-c2ccccc2)c1C(=O)N/N=C/c1cccs1 | -9 | -5 | -22 | 22 | i | 2 | -1 | 0
CCOc1ccc(Cl)cc1CSc1n[nH]c(C)n1 | -1 | -10 | -1 | 4 | i | -8 | -4 | -3
SMILES | CSC inhib | eIF4H inh | Yeast UUG start | Env fusion inh | Rce1 inh | PABP FP inh | MT1-MMP act inh | MT1-MMP act inh RFP
Cc1cc(C)n2nc(N)c(N=Nc3ccccc3)c2n1 | 0 | -3 | x | -5 | i | 0 | 3 | -1
O=C(CCN1C(=O)c2ccccc2C1=O)NCc1ccccc1 | -6 | -7 | -12 | -7 | i | 2 | -1 | 1
CCCCn1c(N)c(N(CCOC)C(=O)c2ccc(C)o2)c(=O)[nH]c1=O | 0 | x | x | 2 | i | x | -2 | 2
Cc1ccc(C(C(=O)NCc2ccccc2)N(Cc2ccco2)C(=O)c2snc(C(N)=O)c2N)o1 (stereo not drawn) | x | 4 | 7 | 11 | i | 8 | 4 | 2
CCOc1ccc(S(=O)(=O)Nc2ccc(C(=O)N3CCCC3)cc2)cc1 | -1 | -19 | 3 | 3 | i | -3 | 3 | -1
CC1CCCN(C(=O)c2ccc(OC3CCN(CCc4ccccc4)CC3)cc2)C1 (stereo not drawn) | 7 | x | -12 | 16 | i | x | 1 | 0
Cc1nccc2oc(=O)c(NC(=O)c3ccc(Cl)cc3)cc12 | -1 | -10 | -10 | 3 | i | -2 | 0 | 5
CSCC[C@H](NC(=O)N1CCn2c1nc1ccccc12)C(=O)NCC1CCCO1 (stereo partly drawn) | 0 | x | -15 | 2 | i | x | -4 | -1
CC1(C)c2[nH]c3ccccc3c2C[C@H]2C(=O)N(Cc3ccccc3)C(=O)N21 | 32 | x | -7 | 7 | i | x | 3 | -7
CC12CCC(C(=O)N(CSC(=S)N/N=C\c3ccccc3)C1=O)C2(C)C (stereo not drawn) | 17 | 10 | -32 | -62 | i | 6 | 6 | 3
Cc1oc(S(=O)(=O)N2CCCCC2)cc1NC(=O)Nc1ccc(Cl)cc1 | 14 | 2 | x | 7 | i | 8 | 8 | -8
O=C(Cn1nnc2c(cnn2-c2ccc(F)cc2)c1=O)Nc1ccccc1C(F)(F)F | -9 | -6 | x | 4 | i | -3 | -2 | 0
CCN(CC)CCN(Cc1cc2cc3c(cc2[nH]c1=O)OCO3)C(=S)NCCCOC | -9 | 5 | -24 | -16 | i | 4 | 1 | 6
c1ccc2c3c([nH]c2c1)-c1[nH]ncc1CC3 | 8 | -8 | -19 | x | i | -8 | 8 | 2
O=C(/C=C/c1ccc2c(c1)OCO2)c1cccnc1 | -7 | -3 | -26 | 2 | i | 6 | -3 | 1
O=C(NCCS(=O)(=O)N1CCN(c2ccccc2)CC1)c1cc(=O)c2ccccc2o1 | x | x | -10 | -20 | x | x | 0 | 0
CCOC(=O)C1CCN(C(=O)COc2ccc(Cl)cc2Cl)CC1 | -20 | 5 | x | x | i | 9 | -6 | -1
C[C@H]1CN([C@@H](C)CO)C(=O)c2cc(C#Cc3ccccn3)cnc2O[C@@H]1CN(C)Cc1ccccc1 | x | x | 4&-18&31 | -29 | x | x | 4 | 8
Cc1c(C(=O)N2CCCCC2)c(S(=O)(=O)N(C)Cc2ccccc2)c(C)n1C | 1 | -4 | 8 | 19 | i | -5 | 1 | 2
O=C(C1CCN(S(=O)(=O)c2cccs2)CC1)N1CCc2ccccc2C1 | -3 | -2 | 8 | x | i | 1 | 1 | -2
CC1=C(C(=O)Nc2ccc(C(=O)NC(C)c3ccccc3)cc2)SCCO1 (stereo not drawn) | 1 | -4 | -13 | -9 | i | -8 | 0 | 4

One compound at a time, from the list above. Order of screens: CSC inhib	eIF4H inh	Yeast UUG start	Env fusion inh	Rce1 inh	PABP FP inh	MT1-MMP act inh	MT1-MMP act inh RFP
`CC(OC(=O)CC1CCCCC1)C(=O)Nc1ccc(F)cc1` (stereo not drawn) as listed: -5	x	-13	-2	i	x	1	-4
`N#Cc1ccc(-c2ccc(Cl)cc2)nc1SCC(=O)c1cccc(Cl)c1` as listed: 10	0	-18	-27	i	9	-65	4

Bioassay records: PubChem BioAssay, several laboratories

Only part of the results is shown. The share of hits here may be higher or lower than overall.
